Rango dissoc inh = qHTS Assay for Inhibitors of RanGTP induced Rango (Ran-regulated importin-beta cargo) - Importin beta complex dissociation; Snurportin-1 (Homo sapiens) + GTP-binding nuclear protein Ran (Homo sapiens) + Importin …; Biochemical FRET Rango-importin beta, RanGTP-induced dissociation; Potency, µM (doses to about 46.1 µM), for inactives: at the highest dose activity change, negative = inhibition; actives 0.071% (n = 340,000); active means falling FRET ratio curve, often poorly fitted, with flat reads before Ran was added; inconclusive means other falling curves, or compound fluorescence or quenching; inactive means flat or rising ratio curve;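 note: potency is the fitted concentration of half-maximal effect; % of control where 0% means no effect; nearly all actives have a fitted effect of over 45% in size; -100% = wells without RanGTP and RCC1; the record marks most hits as doubtful in a second field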
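Quantitative HTS using a FRET biosensor: 0.1 uM Rango, 0.25 uM importin beta, 0.6 uM Ran, 2 mM GTP, 0.2 uM RCC1 final, PBS with DTT, Tween-20 and BSA. Post-read taken 45 min after Ran addition.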
GLA inh pH 4.5 = qHTS Assay for Inhibitors of Human alpha-Galactosidase at pH 4.5 | AID 1467, 2008 | 230,000 tested, under 10 active | purified enzyme, 4-MU-alpha-Gal fluorescence, pH 4.5 | activity change, negative = inhibition, % at 105 µM | Alpha-galactosidase A (Homo sapiens), P06280; inconclusive = small, poorly fitted or top-dose-only inhibition, or a rising curve; inactive = flat fitted curve, though single readings scatter; no compound was filed as active;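 note: 0% = full activity with enzyme and -100% = basal without enzyme; dose as in the result columns while the protocol names 77 µM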
Target sequence (P06280 whole entry, looked up): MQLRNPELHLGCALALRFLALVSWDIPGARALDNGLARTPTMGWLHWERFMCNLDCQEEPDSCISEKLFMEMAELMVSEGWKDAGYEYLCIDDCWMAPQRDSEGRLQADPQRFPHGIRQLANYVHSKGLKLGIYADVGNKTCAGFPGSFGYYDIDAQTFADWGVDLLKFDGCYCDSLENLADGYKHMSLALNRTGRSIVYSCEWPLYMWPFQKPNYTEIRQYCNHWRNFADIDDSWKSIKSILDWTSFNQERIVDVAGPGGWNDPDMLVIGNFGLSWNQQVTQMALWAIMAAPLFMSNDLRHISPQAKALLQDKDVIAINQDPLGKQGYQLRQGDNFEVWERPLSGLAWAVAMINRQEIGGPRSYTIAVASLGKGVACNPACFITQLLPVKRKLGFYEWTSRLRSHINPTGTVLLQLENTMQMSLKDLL
miR-21 reporter = qHTS Assay for Modulators of miRNAs and/orActivators of miR-21; HeLa miR-21 FLuc reporter, luciferase, 48 h; Potency, µM (series often up to 38.3 µM), without a hit: top-dose reporter change, positive = more light; 340,000 tested, under 10 active; AID 2288, 2010; active = well fitted rising curve with a large enough effect; inconclusive = small, poorly fitted or top-dose-only effect; inactive = no such curve, though single readings can be large or run the other way;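 note: % of control where 0% means no effect; miR-21 action dims this reporter so a rising signal means less miR-21 action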
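Using DMEM plus 10% FBS, HeLa miR-21-FLuc cells are incubated with test compounds (final up to about 40uM) for 48 hours; firefly luciferase signal is then imaged following reagent-mediated lysis.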
Rango-impB inh = qHTS Assay for Inhibitors of Rango (Ran-regulated importin-beta cargo) - Importin beta complex formation; Rango CFP/YFP FRET sensor + importin beta, 45 min; Importin subunit beta-1 (Homo sapiens), Q14974; actives 0.031% (n = 340,000); Potency, µM (series often up to 92.2 µM), for inactives: at the top dose inhibition of complex formation; active = rising FRET ratio curve, often small or poorly fitted; inconclusive = mostly compound fluorescence or quenching in the first reads; inactive = flat curves in all reads;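 note: potency is the fitted concentration of half-maximal effect; 0% = DMSO wells and 100% = buffer wells lacking importin beta; nearly all actives have a fitted effect of over 15% in size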
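Inhibition scored from the CFP 486 nm/YFP 530 nm FRET ratio 45 min after adding 0.125 microM importin beta to 50 nM Rango biosensor preincubated 5 min with compound (room temperature, PBS with DTT, Tween-20, BSA). No-importin wells as positive control.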
Starred values were filed as active, the others as inactive; ? = inconclusive; . = not tested or not shown; & = joins results of further samples. An excerpt; count on the stated rates, not on these rows.

SMILES | Rango dissoc inh | GLA inh pH 4.5 | miR-21 reporter | Rango-impB inh
Cc1cc(C(=O)OCC(=O)N2CC(C)OC(C)C2)c(C)n1-c1ccccc1 (centres undefined) | -9.2% | . | . | -1.5%
CN(Cc1ccc(Cl)cc1)C(=O)CCl | 8.1% | 6.6 | ? | 8.7%
O=C(CCc1nc2ccccc2c(=O)[nH]1)OCc1ccc(Cl)cc1Cl | -4.8% | 0.3 | 0.7% | 1.4%
Cc1nnc(N/N=C/c2cccs2)[nH]c1=O | -12.8% | -2.7 | -0.4% | -0.7%
CC1CCCN(C(=O)CNC(=O)Cn2ccc3ccccc3c2=O)C1 (centres undefined) | 7.0% | -0.1 | -7.2% | -0.3%
Cc1ccc(OCC(=O)Nc2nnc(-c3ccco3)s2)cc1 | -6.3% | 1.1 | -5.6% | 0.6%
CCOCCCNC(=O)c1cc2sc(Cl)cc2n1CC | -16.2% | -1.5 | 8.7% | 2.3%
CCNC(=O)CSc1nc2ccccc2c(=O)n1-c1cc(OC)ccc1OC | -6.5% | -2.1 | -5.2% | -4.6%
Cc1ccc(CN2CCN(C(=O)c3cccc4ccccc34)CC2)cc1 | -4.3% | . | 25.2% | ?
Cc1onc(-c2ccccc2Cl)c1C(=O)OCC(=O)c1c(N)n(C)c(=O)n(C)c1=O | 1.8% | 4.8 | -24.7% | -2.5%
O=C(O)c1ccc(CNC(=O)c2ccc(C(F)(F)F)cc2)cc1 | -8.6% | -3.6 | -10.6% | -1.4%
Oc1cccc(/C=N/n2c(C3CCCCC3)n[nH]c2=S)c1 | 1.2% | . | -3.7% | 1.7%
CCOC(=O)CSc1n[nH]c(-c2cccnc2)n1 | 1.8% | 5.9 | -0.5% | ?
O=S1(=O)C=CC(Nc2ccccc2)C1 (centres undefined) | 1.0% | -4.1 | 0.2% | -2.5%
COc1cc(/C=C2\C(=N)N3N=C(S(C)(=O)=O)SC3=NC2=O)ccc1OCCOc1ccc(C)cc1 | 11.8% | . | -8.6% | -0.3%
Cc1cc(C(=O)N2CCCC(N3CCN(Cc4ccc5c(c4)OCO5)CC3)C2)n[nH]1 (centres undefined) | -6.0% | . | -0.6% | 0.1%
CC1CCN(C(=O)c2ccc(N3C(=O)C4CCC(C)CC4C3=O)cc2)CC1 (centres undefined) | -6.2% | -2.1 | -7.8% | -4.7%
O=C(C1CC1)N1CCc2cc(Br)cc(S(=O)(=O)NCc3ccco3)c21 | 1.9% | -2.0 | 0.3% | -4.1%
Cc1ccccc1-c1nnn(CC(=O)Nc2ccc3c(c2)OCO3)n1 | -4.8% | 3.5 | -15.0% | -4.5%
Cc1oc2ccc(OS(C)(=O)=O)cc2c1C(=O)OC(C)C | 0.2% | -14.2 | -21.2% | 2.9%
O=C(O)CCNS(=O)(=O)c1ccccc1 | 2.7% | 4.4 | -0.3% | -1.7%
CCn1c(SCC(=O)N2CCCc3ccccc32)nnc1-c1ccoc1C | 0.7% | -10.8 | -8.1% | -2.0%
COc1cccc(N(CC(=O)N2CCN(C)CC2)S(=O)(=O)c2ccccc2)c1 | -15.8% | 7.7 | 0.6% | 1.0%
O=c1[nH]c(CN2CCN(S(=O)(=O)/C=C/c3ccccc3)CC2)nc2ccccc12 | -16.7% | 5.5 | -0.7% | -5.3%
COc1ccc(NS(=O)(=O)c2cccc(C(=O)NNC(=O)CNC(=O)c3ccc(C)cc3)c2)cc1 | 14.3% | . | . | -0.2%

(cont.)
SMILES | Rango dissoc inh | GLA inh pH 4.5 | miR-21 reporter | Rango-impB inh
CCOC(=O)C1(Cc2ccccc2C)CCCN(C(=O)c2ccoc2)C1 (centres undefined) | 10.6% | . | -29.9% | 10.8%
CC(=O)c1c(C)[nH]c(C(=O)C(C)Sc2nnc(NC3CC3)s2)c1C (centres undefined) | 0.2% | . | . | -0.7%
COc1ccc(N2C(=O)CSC2c2ccc(F)c(F)c2)cc1 (centres undefined) | 15.9% | . | -0.1% | 2.1%
COc1ccc(CN2C(=O)c3ccccc3C2C(=O)NC2CCCC(C)C2C)c(OC)c1 (centres undefined) | -3.8% | -5.2 | -0.6% | -0.6%
Cc1ccc(-c2nnc(N3CCN(C(=O)CN4CCOCC4)CC3)c3ccccc23)cc1 | 10.2% | -2.6 | 6.1% | -0.9%
COc1ccc(C(CCNCc2ccc(OC)c(OC)c2)c2ccc(F)cc2)cc1 (centres undefined) | -1.5% | -9.5 | 24.5% | -2.1%
Cc1ccc(S(=O)(=O)N2CCN(C(=O)CN3CCOCC3)C2)cc1 | 0.7% | 8.4 | -0.5% | -0.5%
Cc1ccccc1S(=O)(=O)Cc1ccc(C(=O)N2CCN(c3ncccn3)CC2)o1 | -3.2% | -6.5 | 0.9% | -1.3%
NC(=O)COn1c(SCC(N)=O)nc2ccccc2c1=O | -3.5% | -1.7 | -6.0% | 0.0%
CC(NC(=O)COc1ccc(-c2ccccc2)cc1)C1CCCO1 (centres undefined) | 4.8% | . | -4.8% | -0.1%
COc1ccc2nc(NC(=O)c3ccco3)sc2c1 | 7.6% | . | 15.5% | ?
CCc1ccc(-c2cc(C)no2)cc1S(=O)(=O)N1CCN(C(=O)c2ccco2)CC1 | 5.7% | . | 1.5% | -1.3%
O=C(O)Cn1cc(/C=N/Nc2ccc([N+](=O)[O-])cn2)c2ccccc21 | -19.2% | . | -21.4% | 6.1%
O=C1c2ccccc2-c2nnc(-c3ccc(O)cc3)cc21 | -0.9% | -1.4 | 24.1% | -4.4%
C/C(CC(=O)Nc1ccc([N+](=O)[O-])cc1)=N\NC(=O)c1ccccc1O | 17.0% | . | -14.5% | -3.0%
Cc1ccc(N2C(=O)C3C4CCC(O4)C3C2=O)c(OC(F)F)c1 (centres undefined) | -9.2% | . | . | -2.3%
O=c1c2ccccc2nnn1CSc1nc2ccccc2c(=O)n1CCCO | -4.9% | 2.3 | -8.1% | 0.2%
FC(F)(F)c1nnc2sc(-c3ccco3)nn12 | 0.8% | -1.2 | -0.4% | 1.6%
CC(C)c1nnc(NC(=O)C2CCN(S(=O)(=O)c3ccc(-n4cnnn4)cc3)CC2)s1 | 7.7% | 10.8 | 0.0% | 0.2%
O=C(COc1ccccc1[N+](=O)[O-])N/N=C/c1cccs1 | 1.7% | -10.9 | -32.0% | 0.2%
Brc1ccc(-c2csc(N3CCOCC3)n2)cc1 | -6.1% | 8.3 | -57.5% | 1.8%
COc1ccccc1CNC(=O)N[C@@H](Cc1ccccc1)C(=O)O | 2.1% | -7.6 | -1.7% | 1.6%
CC(C)C(NC(=O)c1ccc(Cl)c([N+](=O)[O-])c1)C(=O)NCc1ccccn1 (centres undefined) | -15.9% | . | . | -0.5%
OCCNCCCCOc1ccccc1F | 2.0% | 3.6 | -10.3% | -1.0%
CCN(C(=O)CSc1nc2cc(C(=O)O)ccc2c(=O)n1-c1ccccc1F)C1CCS(=O)(=O)C1 (centres undefined) | -16.9% | . | . | 5.9%

The list goes on.
SMILES | Rango dissoc inh | GLA inh pH 4.5 | miR-21 reporter | Rango-impB inh
Cc1cc2c(cc1S(=O)(=O)NC1CCCCC1C)OCC(=O)N2 (centres undefined) | 0.0% | . | -19.0% | -4.6%
Cc1ccc(S(=O)(=O)NC(C)C(=O)N2CCOCCOCCOCC2)cc1 (centres undefined) | 17.6% | . | -10.5% | 2.3%
O=C(CCn1c(=O)sc2ccccc21)Nc1ccon1 | -6.8% | -5.5 | -17.7% | -1.0%
COC(=O)c1ccc(/C=C2/SC(=S)N(CCC(=O)N3CCOCC3)C2=O)cc1 | 7.0% | . | 2.4% | -0.4%
Cc1ccc(S(=O)(=O)N2C(=O)[C@@H]3Cc4ccccc4CN3C2=O)cc1 | 26.5% | . | -5.4% | -0.8%
COc1ccc2c(c1)C(=O)N(c1ccc(C)cc1)C(=O)C2 | -20.6% | 3.1 | -5.1% | ?
CCn1cc(CCC(=O)NCc2ccc(F)cc2)c2ccccc21 | -4.2% | . | -1.0%&-4.8% | -0.9%
O=C(c1cc2nc(-c3ccco3)cc(C(F)(F)F)n2n1)N1CCN(c2ccccn2)CC1 | -3.7% | -19.2 | 4.2% | ?
O=C(CN1CCN(S(=O)(=O)c2ccc(Br)cc2)CC1)N/N=C/c1ccncc1 | -6.3% | -2.8 | 2.8% | -0.7%
CC(Sc1nnc(-c2cccs2)n1-c1ccccc1)C(=O)NCc1ccco1 (centres undefined) | 12.4% | 0.0 | 5.2% | ?
CC1=C(C(=O)Nc2ccccc2)C(c2cccs2)C(C#N)=C(SCC#N)N1 (centres undefined) | -18.4% | -5.1 | -0.2% | ?
c1cc(Nc2ncnc3sc4c(c23)CCC4)ccn1 | 0.1% | 4.7 | 1.7% | 2.1%
COc1ccc(NC(=S)N2CCN(S(C)(=O)=O)CC2)cc1 | 16.5% | . | -5.9% | -2.3%
Cc1cc(S(=O)(=O)NCc2ccc(N3CCN(C)CC3)cc2)c(C)s1 | -12.5% | -7.4 | -3.9% | -5.4%
CN(C)CCNS(=O)(=O)c1ccc(N2CCc3ccccc32)c([N+](=O)[O-])c1 | -4.5% | . | 22.0% | 0.0%
O=C1OCCN1C(=O)[C@H]1[C@H](c2ccccc2)C(c2ccccc2)=NN1c1ccccc1 | ? | -11.1 | . | ?
O=C(Nc1ccc(OCC(F)(F)C(F)F)c(C(F)(F)F)c1)c1ccc(Cl)cc1 | 4.7% | . | . | 0.7%
O=C(NCCOCCOCCNC(=O)c1cccnc1)c1cccnc1 | 0.2% | 0.4 | -9.6% | -1.2%
C=CCn1c(SCC(=O)c2c(N)n(C)c(=O)n(C)c2=O)nnc1-c1ccncc1 | 25.8% | 7.5 | -4.9% | -2.5%
Cc1nc(C)c(-c2csc(Nc3ccccn3)n2)s1 | -3.1% | . | -1.8% | -2.4%
CCC1CCCCN1C(=O)COc1ccc(F)cc1 (centres undefined) | -2.0% | 1.7 | -1.1% | 0.2%
COc1cc(-c2[nH]nc3c2C(c2ccoc2)C(C#N)=C(N)O3)cc(OC)c1OC (centres undefined) | -9.8% | -0.3 | -5.1% | 0.1%
CC(C)[C@H](NC(=O)OC(C)(C)C)C(=O)NCC1CCC(C(=O)N[C@@H](Cc2ccccc2)C(=O)O)CC1 (some centres undefined) | -5.8% | . | -4.9% | 3.8%
Cc1ccc(CNC(=O)COC(=O)CN2C(=O)C3CC=CCC3C2=O)cc1 (centres undefined) | 1.5% | . | . | 0.4%
CCOC(=O)c1cc(-c2ccc(C)cc2)n(CCC(=O)NC(C)CC)c1C (centres undefined) | ? | -0.9 | -10.0% | 0.0%
CCOC(=O)CNC(=S)NN(C)C | 11.4% | 2.3 | -2.8% | -0.1%

A second format for some results above:
Compound,Rango dissoc inh,GLA inh pH 4.5,miR-21 reporter,Rango-impB inh
O=C(Nc1ccc(OCC(F)(F)C(F)F)c(C(F)(F)F)c1)c1ccc(Cl)cc1,4.7%,.,.,0.7%
O=C(NCCOCCOCCNC(=O)c1cccnc1)c1cccnc1,0.2%,0.4,-9.6%,-1.2%
C=CCn1c(SCC(=O)c2c(N)n(C)c(=O)n(C)c2=O)nnc1-c1ccncc1,25.8%,7.5,-4.9%,-2.5%
Cc1nc(C)c(-c2csc(Nc3ccccn3)n2)s1,-3.1%,.,-1.8%,-2.4%

2 records picked at random from the list so far:
SMILES | Rango dissoc inh | GLA inh pH 4.5 | miR-21 reporter | Rango-impB inh
Cc1ccc(S(=O)(=O)NC(C)C(=O)N2CCOCCOCCOCC2)cc1 (centres undefined) | 17.6% | . | -10.5% | 2.3%
O=C(CN1CCN(S(=O)(=O)c2ccc(Br)cc2)CC1)N/N=C/c1ccncc1 | -6.3% | -2.8 | 2.8% | -0.7%

Quoted from the listing, two compounds:
SMILES | Rango dissoc inh | GLA inh pH 4.5 | miR-21 reporter | Rango-impB inh
CN(C)CCNS(=O)(=O)c1ccc(N2CCc3ccccc32)c([N+](=O)[O-])c1 | -4.5% | . | 22.0% | 0.0%
O=C1OCCN1C(=O)[C@H]1[C@H](c2ccccc2)C(c2ccccc2)=NN1c1ccccc1 | ? | -11.1 | . | ?

Source: PubChem
